# Arbovirus inh – arbovirus infection inhibition. arbovirus infection cell-based antiviral screen. inhibition, % at 10 µM. actives 0.37% (n = 200,000). AID 1251;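 active means inhibition from about 30%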;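 further: bluetongue infection of BSR cells; cell survival read as ATP light after 72 h; 0% = infected wells without compound and 100% = uninfected wells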
# RecA intein inh – inhibitors of M. tuberculosis RecA intein splicing | P9WHJ3 | actives 0.75% (n = 290,000) | inhibition, %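 (about 9 µM by stock and volumes)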 | cell-free RecA intein splicing, fluorescence; in the data active means inhibition above about 30%; inconclusive means no clear call, values can overlap the other calls;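 further: 0% = vehicle wells and 100% = reference inhibitor control wells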
# Target sequence (P9WHJ3 whole entry, looked up): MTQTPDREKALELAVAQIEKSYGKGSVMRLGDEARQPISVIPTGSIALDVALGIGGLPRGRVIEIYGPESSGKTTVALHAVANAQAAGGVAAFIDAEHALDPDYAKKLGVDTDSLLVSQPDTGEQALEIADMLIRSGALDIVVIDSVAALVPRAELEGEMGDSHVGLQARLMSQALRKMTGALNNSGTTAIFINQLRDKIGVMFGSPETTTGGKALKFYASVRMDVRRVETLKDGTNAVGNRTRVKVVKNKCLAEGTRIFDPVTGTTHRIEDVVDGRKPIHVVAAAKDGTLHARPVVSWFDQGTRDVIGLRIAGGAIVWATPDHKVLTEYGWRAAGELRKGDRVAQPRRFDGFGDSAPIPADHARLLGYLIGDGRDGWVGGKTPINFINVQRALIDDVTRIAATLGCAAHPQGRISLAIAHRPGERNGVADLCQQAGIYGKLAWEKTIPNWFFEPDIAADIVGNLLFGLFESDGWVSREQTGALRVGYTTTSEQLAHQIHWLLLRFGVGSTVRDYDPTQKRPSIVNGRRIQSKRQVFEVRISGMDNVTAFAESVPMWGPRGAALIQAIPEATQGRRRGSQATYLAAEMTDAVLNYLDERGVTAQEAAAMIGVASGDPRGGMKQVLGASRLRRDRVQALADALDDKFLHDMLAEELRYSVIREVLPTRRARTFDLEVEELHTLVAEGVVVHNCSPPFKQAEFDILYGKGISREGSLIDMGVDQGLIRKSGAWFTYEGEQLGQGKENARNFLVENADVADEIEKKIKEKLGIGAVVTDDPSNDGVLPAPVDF
# YopH PTP inh – inhibitors of Yersinia enterocolitica YopH tyrosine phosphatase; fluorescence Ex485/Em525; inhibition, %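 (about 10 µM by stock and volumes)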; actives 0.16% (n = 140,000); AID 898;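 active means inhibition of 50% or more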;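 further: controls were vehicle for no effect and minimum signal wells for full effect; inactives centre near -20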
# Mtb bLac sens – beta-lactam sensitization of Mtb H37Rv. M. tuberculosis H37Rv growth with meropenem, percent inhibition; hits of this screen are not shown here. inhibition, % at 25 µM. actives 0.27% (n = 330,000). AID 434955;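 active means about 74% or more and at least 40 points above the plate without the antibiotic, then above 30% in a dose series; inconclusive means first-round hits that could not be retested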;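 further: growth measured after seven days incubation then overnight dye step; 0% = bacteria only wells and 100% = bacteria with antibiotic; twin plates without the antibiotic show which effects depend on it; some results filed as inactive read as strong as hits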
# Mtb H37Rv – M. tuberculosis H37Rv growth inhibitors, H37Rv strain (AID 1626). M. tuberculosis H37Rv growth inhibition; higher % means a stronger effect. inhibition, % at 10 µM, or IC50 in µM where a hit was titrated. actives 0.95% (n = 220,000);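 active means confirmed in a dose series; inconclusive means inhibition above 80% but not taken into the dose series; inactive means below 80% or under 30% at every dose of the series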;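 further: bacteria incubated seven days before Alamar blue readout; 0% = bacteria only wells and 100% = bacteria with antibiotic wells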
# Arbovirus inh repeat – also measured in Arbovirus inh; calls as there; inhibition, %; measured here: 10K subset replicate screen; many hits read low in the repeat;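 first of two repeat runs on a subset; 0% = infected and 100% = uninfected wells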
# Active calls of the source: *; u = inconclusive; x = no result given. Not all compounds are listed; count on the stated rates, not on these rows.
SMILES,Arbovirus inh,RecA intein inh,YopH PTP inh,Mtb bLac sens,Mtb H37Rv,others
CC1=CS(=O)(=O)CC1Sc1ncn[nH]1 (stereo not given),-3,-0.8,-32,8,3%,
CC(=O)NC(=S)Nc1ccc(NC(=O)c2cccnc2)cc1,x,0.2,x,6,-8%,
Cc1cccc(-n2c(-c3ccncc3)n[nH]c2=S)c1C,3,-0.9,x,0,13%,
CN(C)c1nc(NCc2ccccc2)nc(SCC(=O)Nc2ccc(Cl)c(Cl)c2)n1,-17,-0.5,-25,-9,13%,
Cc1ccc(C)c(OCCCC(=O)Nc2ccc(N3CCOCC3)cc2)c1,-2,6.3,-31,x,-10%,
Cn1cc(P(=S)(N2CCOCC2)N2CCOCC2)cc1P(=S)(N1CCOCC1)N1CCOCC1,4,2.2,x,-3,1%,
COc1ccccc1-c1nc(-c2ccc(C)nc2OC)no1,3,0.9,-30,7,-2%,
Cc1ccc(N(CC(=O)NCc2ccc3c(c2)OCO3)S(=O)(=O)c2c(C)noc2C)cc1,-2,1.6,4,-1,7%,
CC1(C)Cc2nc3sc4c(N(CCO)CCO)nnnc4c3cc2CO1,4,1.9,x,-8,-2%,
COc1ccc(NC(=S)N(CCCN2CCOCC2)Cc2ccccn2)cc1,2,-2.3,x,3,2%,
COc1ccc(CN(CC(=O)NCC2CCCO2)C(=O)CNS(=O)(=O)c2ccccc2)cc1 (stereo not given),x,-1.5,x,-7,x,
COc1cc(C2/C(=C(\O)c3ccc4c(c3)OCCO4)C(=O)C(=O)N2Cc2ccccc2)ccc1O (stereo not given),x,-0.5,x,-6,x,
Cc1nc2ccc(C(=O)OCc3nnc(-c4ccc(Br)cc4)o3)cc2nc1C,x,0.4,x,2,x,
Cc1cccc(C(=O)OCC(=O)Nc2c(C)nn(-c3ccccc3)c2C)c1O,x,-0.5,x,-2,x,
COc1cc2c(cc1OC)C(c1c(Cl)cccc1Cl)NC(=O)C2 (stereo not given),x,-2.3,x,-2,x,

# Compounds listed so far containing an NH in an aromatic ring, in the order listed:
SMILES,Arbovirus inh,RecA intein inh,YopH PTP inh,Mtb bLac sens,Mtb H37Rv,others
CC1=CS(=O)(=O)CC1Sc1ncn[nH]1 (stereo not given),-3,-0.8,-32,8,3%,
Cc1cccc(-n2c(-c3ccncc3)n[nH]c2=S)c1C,3,-0.9,x,0,13%,

# Next section:
SMILES,Arbovirus inh,RecA intein inh,YopH PTP inh,Mtb bLac sens,Mtb H37Rv,others
CCOc1cc2oc(=O)c3c(c2cc1Cl)CCC3,2,0.6,-11,8,5%,
CCC(=O)NCCc1nc2ccccc2n1Cc1ccccc1,9,0.0,28,-5,-11%,
COc1cc(OC)c(NC(=O)c2c(-c3ccccc3)noc2C)cc1Cl,-5,0.2,-2,1,2%,
O=S(=O)(NCCc1csc(-c2cccnc2)n1)c1ccc2c(c1)OCCO2,2,-0.1,-54,-1,3%,Arbovirus inh repeat=0
Cc1cc(NC(=O)C2CCN(S(=O)(=O)Cc3ccccc3)CC2)ccc1-n1cnnn1,-3,2.8,-9,-6,-2%,
CC(C)(C)CC(=O)Nc1nnc(-c2cccs2)s1,1,2.0,-6,-9,0%,
COc1ccc(C2C(C(C)=O)=C(O)C(=O)N2c2ccccn2)cc1 (stereo not given),x,-2.6,x,-10,x,
O=c1[nH]c(CSc2nnc(NCCCN3CCOCC3)s2)nc2cc(Cl)ccc12,1,-0.6,-25,-2,-13%,
COc1ccc(COCCN2CCN(S(=O)(=O)c3ccc(C)cc3)CCC2=O)cc1,-5,3.6,-1,-1,6%,
CCOC(=O)C1CCN(C(=O)c2n[nH]c(=O)c3ccccc23)CC1,2,0.7,-44,-5,8%,
Oc1ccc(Br)cc1CN1CCN(c2ccccc2)CC1,0,2.8,-47,-13,-2%,
COc1ccc(N2C(=O)CC(Sc3nc4c(cc3C#N)CCC4)C2=O)cc1 (stereo not given),-2,1.4,x,-4,-2%,
Cc1ccc(N2C(=O)C3C4C=CC(CNC(=S)N5CCN(c6cccc(C)c6)C(C)C5)(O4)C3C2=O)cc1 (stereo not given),-6,-1.0,x,-1,-2%,
CCC(C)N(C(=O)Cn1cnc2c1c(=O)n(C)c(=O)n2C)C1CCS(=O)(=O)C1 (stereo not given),x,-1.4,x,-7,x,
O=C(Nc1ccc2c(c1)C(=O)OC2)c1ccc(Cl)cc1,x,-1.5,x,-6,x,
CC(C)CCNC(=O)C(c1cccnc1)N(Cc1ccccc1)C(=O)Cn1nnc2ccccc21 (stereo not given),x,3.0,-5,-5,-2%,
O=C(Oc1cccnc1)c1ccco1,5,0.8,-17,-8,0%,
N#CC1=C(N)OC2=C(C(=O)CCC2)C1CCc1ccccc1 (stereo not given),2,-0.6,-21,-5,-5%,
Cc1c(N2C(=O)/C(=C/C3CC=CCC3)SC2=S)c(=O)n(-c2ccccc2)n1C (stereo not given),x,25,x,-2,-9%,
COc1ccc(C2=NS(=O)(=O)N(C)C(C(=O)N3C(C)CCCC3C)=C2)cc1 (stereo not given),x,-4.0,x,7,x,
CCc1cc(C(N)=S)ccn1,1,-1.1,x,79,79%,
O=C(CSc1nc2ccccc2c(=O)n1CCC(=O)N1CCCCC1)NCc1ccccc1,17,0.8,4,46,-4%,
CCCc1cc(=O)oc2cc(C)cc(OC(=O)c3ccco3)c12,10,0.7,-24,10,4%,Arbovirus inh repeat=8
CC1CCN(S(=O)(=O)c2ccc3c(ccn3CC(=O)O)c2)CC1,x,2.1,x,5,x,
Cn1nccc1NS(=O)(=O)c1ccc(NC(=O)C(F)(F)F)cc1,x,-2.6,x,-1,-5%,
CCOc1ccc(-n2ccc(=O)c(C(=O)Nc3ccc(S(=O)(=O)Nc4nccs4)cc3)n2)cc1,x,2.7,x,0,x,
Cc1ccc2oc(C(=O)NCCCN3CCOCC3)c(C)c2c1,x,-1.3,x,-3,x,
CCOC(=O)c1ccc(N2CCN(C(=O)c3ccccc3)CC2)c(NC(=O)c2ccco2)c1,x,4.1,x,-7,x,
Cc1ccc(-c2nc3ncccc3o2)cc1NC(=O)c1cccs1,-9,-1.2,x,10,-7%,
COC(=O)c1ccccc1OC(=O)c1cc2ccccc2oc1=O,x,-0.5,x,u,x,
CCC(C(=O)OCC(=O)Nc1ccc(C(=O)Nc2ccc(OC)cc2)cc1)c1ccccc1 (stereo not given),-7,-4.5,-18,-1,4%,
Cc1cc(C(=O)CN2C(=O)NC(c3ccccc3)(c3ccccc3)C2=O)c(C)n1Cc1ccco1,-9,8.6,8,69,2%,
Cc1nc(SCC#N)c2c3c(sc2n1)CCC3,3,0.1,-30,25,1%,
COc1ccc(C)cc1S(=O)(=O)N1CCN(S(=O)(=O)c2cc(C)ccc2OC)C(C)C1 (stereo not given),16,4.2,-13,-1,-5%,Arbovirus inh repeat=4
S=C1SCN(CCN2CCOCC2)CN1Cc1ccccc1,2,4.8,-59,72,2%,
CCCc1cc(-n2cnc3ccccc32)n2c(nc3ccccc32)c1C#N,-4,-25,-19,9,-9%,
N=C1SCC(=O)N1c1ncc(Cc2cccc(Cl)c2)s1,-38,0.2,x,x,<0.2µM*,
Cc1onc(-c2ccccc2Cl)c1C(=O)NCc1ccccn1,2,-0.1,-2,-8,0%,
Cc1nc(-c2cccc(NS(=O)(=O)c3ccccc3)c2)cs1,11,1.5,-19,-10,-3%,
CCNC(=S)SCCOc1ccc(C)cc1,-8,7.2,-15,-3,2%,
CCOC(=O)c1cnc2nc(SCc3ccccc3Cl)[nH]n2c1=O,x,-0.3,x,29,x,
CCCN(CC1CC1)C(=O)COc1ccccc1C(=O)NCc1ccccc1,-16,4.5,-9,-22,1%,
CC(C)c1ccc(C2NC(C(=O)O)CS2)cc1 (stereo not given),1,0.7,-3,10,-5%,
O=c1c2ccccc2ncn1Cc1ccccc1,x,-1.5,x,-6,-10%,
O=C(NCCCNc1ccc([N+](=O)[O-])cc1Cl)c1ccccc1F,1,1.4,x,1,-9%,
Cc1cccc(NC(=S)NCCc2ccccc2)n1,-2,1.2,x,38,5%,
N#CC1=C(N)Oc2c(oc(CO)cc2=O)C12C(=O)Nc1ccc(Cl)cc12 (stereo not given),2,0.2,-22,-12,-7%,
CCNC(=S)N(Cc1ccccc1)Cc1nc2ccccc2c(=O)[nH]1,8,0.8,-11,1,6%,
c1ccc(CN2CCN(c3nc(-c4ccccc4)nc4ccccc34)CC2)cc1,-3,7.3,-4,5,x,
CC(C)(C)c1nc(NCCO)c2nnn(Cc3ccccc3)c2n1,x,-9.6,x,1,x,
Cc1cc(C)cc(NC(=O)C2CCCN(c3nccc(C)n3)C2)c1 (stereo not given),1,-0.6,-22,-8,14%,
O=C(Nc1ccc(Cl)c(Cl)c1)N1CC=CCC1,1,8.0,-30,-1,10%,
Cc1ccccc1N1CCN(C(=O)c2ccccc2NC(=O)/C=C\C(=O)O)CC1,2,2.6,-12,2,-3%,
NC(=O)c1ccccc1NC(=O)C(c1ccccc1)c1ccccc1,x,6.8,x,-1,x,
CC(C)Sc1nc(N2CCCC2)c2c(c1C#N)CC(C)(C)OC2,-4,22,-30,13,13%,
Nc1ccccc1SC/C=C/CSc1ccccc1N,x,0.1,x,-7,x,
O=C(O)CCN=Cc1c(O)c2ccccc2oc1=O,10,-7.5,x,3,-1%,
CCN(N=Nc1cccc([N+](=O)[O-])c1)c1cccc([N+](=O)[O-])c1,2,-2.4,-40,-1,1%,
Cc1cc(C)cc(NC(=O)NNC(=O)c2cc3occc3[nH]2)c1,x,-1.3,x,-5,x,
S=C(NN=C1CCN(Cc2ccccc2)CC1)NC1CCCCC1,4,10,x,100,3%,
# Following part
SMILES,Arbovirus inh,RecA intein inh,YopH PTP inh,Mtb bLac sens,Mtb H37Rv,others
COc1ccc(NC(=O)CSc2[nH]c(=O)cc(C)c2C#N)cc1OC,11,2.1,-5,3,-23%,
Cc1ccc(C2=CC(C)(c3ccc(C)cc3)Nc3nc(C(F)(F)F)nn32)cc1 (stereo not given),17,7.7,-16,-1,5%,
O=C(NCc1ccccc1)c1onc(CSc2ccc(Cl)cc2)c1C(=O)NCC1CC1,x,2.6,x,-10,x,
O=C(NCCc1ccccc1)C(=O)NCC1OCCCN1S(=O)(=O)c1cc(F)ccc1F (stereo not given),x,-1.1,x,0,x,
CCOC(=O)C1=C(CSc2nc(-c3ccncc3)ccc2C#N)OC(N)=C(C#N)C1c1ccc(OC)cc1 (stereo not given),-1,-8.2,9,-3,-2%,
Cc1cccc(Oc2ncnc(N)c2[N+](=O)[O-])c1C,-6,-4.3,-29,3,x,
Cc1ccc(C)c(NC(=O)CCC(=O)N/N=C/c2ccc[nH]2)c1,12,-1.0,-1,14,-4%,
COc1ccc(O)c(C(=O)c2cnn(-c3ccccn3)c2)c1,-4,-0.4,x,-2,-9%,
CCOC(=O)C1=C(C)N(C)C(=O)NC1c1c(OC)ccc2ccccc12 (stereo not given),x,-1.3,x,-14,x,
CN(C)CC1CCCCC1OC(=O)c1ccc(Cl)cc1Cl (stereo not given),3,-1.9,-27,1,-5%,
C[C@H](NC(=O)Nc1ccccc1F)C(=O)O,3,0.7,-58,-3,1%,
CC(C)CSc1nc2ccccc2n1CC(=O)O,0,-0.3,x,-1,-12%,
COc1ccc(C(C)=O)cc1COC(=O)c1cc2ccccc2cc1O,x,1.5,x,2,x,
CCc1n[nH]c2c1/C(=N\O)CC(C)(C)C2,0,0.9,-5,-2,-3%,Arbovirus inh repeat=1
CCOC(=O)/C(C#N)=C1/C=CN(c2ccccc2)C=N1,6,1.2,-15,-3,-5%,

# Among those listed so far, these have a COOH group.
SMILES,Arbovirus inh,RecA intein inh,YopH PTP inh,Mtb bLac sens,Mtb H37Rv,others
CC1CCN(S(=O)(=O)c2ccc3c(ccn3CC(=O)O)c2)CC1,x,2.1,x,5,x,
CC(C)c1ccc(C2NC(C(=O)O)CS2)cc1 (stereo not given),1,0.7,-3,10,-5%,
Cc1ccccc1N1CCN(C(=O)c2ccccc2NC(=O)/C=C\C(=O)O)CC1,2,2.6,-12,2,-3%,
O=C(O)CCN=Cc1c(O)c2ccccc2oc1=O,10,-7.5,x,3,-1%,
C[C@H](NC(=O)Nc1ccccc1F)C(=O)O,3,0.7,-58,-3,1%,
CC(C)CSc1nc2ccccc2n1CC(=O)O,0,-0.3,x,-1,-12%,

# Next section
SMILES,Arbovirus inh,RecA intein inh,YopH PTP inh,Mtb bLac sens,Mtb H37Rv,others
CCCCCn1c(=O)c(C(=O)OCC)c(Cl)c2ccccc21,x,7.6,x,-4,-1%,
CCCc1c(CC)c(=N)c2ccccc2n1C,8,x,3,-4,-4%,
O=C1c2ccccc2S(=O)(=O)N1CC1CC(c2ccc(Cl)cc2)=NO1 (stereo not given),-2,-10,-24,-7,1%,
CCCCCn1c(SC(C)C(C)=O)nc2c1c(=O)[nH]c(=O)n2C (stereo not given),6,-0.6,-39,-4,7%,Arbovirus inh repeat=2
COC(=O)C1=C(c2ccc(S(C)(=O)=O)cc2)C[C@@H]2CC[C@H]1N2C(=O)N1CCCCC1,x,-0.8,x,-1,-1%,
